Ecoli growth – blocks Escherichia coli growth; OD600, 23 h; stronger effect = lower value; OD600 absorbance (concentration not given with the values); 330,000 tested, 0.21% active;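 active means OD600 absorbance below the run mean of sample wells minus 3.6 SD, in any replicate, cut at about 0.56 in these data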;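 further: stock transfer was 300 nL into about 60 µL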
FGF22 binding – FGF22 (human) thermal shift binding | Q9HCT0 | recombinant FGF22 thermal shift, SYPRO orange fluorescence; percent of sucrose octasulfate shift, DMSO zero | calls only at 9.99 µM | 340,000 tested, 1.5% active | AID 651658;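 active means melting point raised past a set limit in the mean and every replicate; inconclusive means no clear call; three in four hits are not shown here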
Target sequence (Q9HCT0 whole entry, looked up): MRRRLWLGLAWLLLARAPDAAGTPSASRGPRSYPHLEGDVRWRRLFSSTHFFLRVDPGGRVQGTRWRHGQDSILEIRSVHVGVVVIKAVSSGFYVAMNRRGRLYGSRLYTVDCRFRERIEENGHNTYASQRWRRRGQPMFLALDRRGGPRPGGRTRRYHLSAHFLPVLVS
Vif TR-FRET – HIV-1 Vif–A3G interaction blockers – biochemical, TR-FRET, GST-Vif 1-94, biotin-A3G peptide, dose response retest, primary screen (AID 1117319). TR-FRET GST-Vif / biotin-A3G peptide binding; higher % means a stronger effect; test concentration not given here; strong numbers were not always called active. one-dose inhibition, %; IC50 in µM for titrated hits. 260,000 tested, 0.57% active;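 active means above the screen mean plus three standard deviations and confirmed in dose response; inconclusive means results disagree or hit not tested in dose response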;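 further: Vif residues 1-94 fused to GST binding biotinylated APOBEC3G peptide 110-148; 0% = full assay without inhibitor and 100% = GST in place of GST-Vif; retest series ran down from 100 µM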
ALR inh – human ALR oxidase inhibition via reduced H2O2; P55789; purified ALR, DTT oxidation, H2O2 HRP-luminol luminescence; inhibition, % (no concentration beside the values); 290,000 tested, 3.8% active;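 active means mean and each replicate at 75% or more; inconclusive means only one of the two met; inactive means neither met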;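 further: stock transfer was 7.5 nL into about 7.5 µL; 0% = neutral wells and 100% = wells with inactivated enzyme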
Target sequence (P55789 whole entry, looked up): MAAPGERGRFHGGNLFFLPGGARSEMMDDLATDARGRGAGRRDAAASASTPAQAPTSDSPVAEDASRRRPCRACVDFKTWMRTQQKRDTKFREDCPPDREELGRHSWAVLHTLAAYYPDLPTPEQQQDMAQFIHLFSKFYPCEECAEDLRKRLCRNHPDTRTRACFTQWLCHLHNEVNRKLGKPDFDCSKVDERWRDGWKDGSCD
MLL AF4-AF9 inh – MLL-AF4/AF9 protein interaction inhibition; 350,000 tested, 0.47% active; AlphaScreen, biotin-AF4 peptide binding to FLAG-AF9; inhibition, % at 10 µM;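 active means every replicate reaching a set inhibition limit, whatever the replicate mean, cut at about 25% in these data; inconclusive means mean inhibition reaches that limit but some replicates miss it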;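 further: 0% = plate neutral control median and 100% = total signal loss; the record names both 10 and 1 µM as test concentration; the first replicate is given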
HNF4A DNA FP – change in binding of human HNF4 alpha to DNA; activity change, % at 10 µM; 360,000 tested, 0.3% active; HNF4a-FITC DNA binding, fluorescence polarization, 1 h; P41235; in the data active means activity change above about 30%, passing the limit was not always enough;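 further: controls were the assay level and a saturating level of protein; the project sought stronger binding though the title names inhibitors; some compounds called inactive have numbers as strong as hits; positive values seem to mean higher polarization but the record does not say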
Target sequence (P41235 whole entry, looked up): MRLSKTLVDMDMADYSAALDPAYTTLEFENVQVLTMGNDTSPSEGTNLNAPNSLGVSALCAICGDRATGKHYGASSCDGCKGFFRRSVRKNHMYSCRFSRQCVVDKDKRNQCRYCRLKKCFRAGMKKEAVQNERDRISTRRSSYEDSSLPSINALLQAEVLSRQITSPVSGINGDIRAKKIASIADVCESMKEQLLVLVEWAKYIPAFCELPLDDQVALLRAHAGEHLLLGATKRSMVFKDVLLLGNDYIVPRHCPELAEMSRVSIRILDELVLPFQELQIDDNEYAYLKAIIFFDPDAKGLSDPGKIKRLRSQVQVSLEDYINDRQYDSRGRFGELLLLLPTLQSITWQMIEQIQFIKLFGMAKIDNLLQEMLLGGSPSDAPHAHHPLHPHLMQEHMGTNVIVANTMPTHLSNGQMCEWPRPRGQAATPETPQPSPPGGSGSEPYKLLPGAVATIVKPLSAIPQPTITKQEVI
rRNA inh HTS – inhibits bacterial ribosomal RNA function over humanized ribosomes. E. coli WT GFP vs humanized-ribosome RFP mutants, fluorescence, 24 h; stronger effect = lower value; DMSO median 0, no signal -100. 350,000 tested, 1.6% active. GFP signal change (wild-type ribosome), % (test concentration not listed);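 active means significant combined selectivity score with lowered wild-type GFP, culture density cut under 30%, mutant RFP and density less affected; inactive means any of these conditions unmet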; further: one replicate is shown; some compounds called inactive have numbers as strong as hits
rRNA inh HTS OD600 – second read-out of rRNA inh HTS, no call of its own (marks repeat the call); OD600 change, %; measured here: OD600 growth;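 optical density of the mix in the first replicate; 0 = DMSO median and -100 = no signal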
rRNA inh HTS RFP – further read-out of rRNA inh HTS, marked with its call; RFP signal change, %; measured here: RFP humanized mutant strains;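 first replicate; 0 = DMSO median and -100 = no signal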
Starred values were filed as active, the others as inactive; i = inactive; u = inconclusive; x = no result given. Some of the compounds tested, so the mix of outcomes need not match the whole.

Ecoli growth	FGF22 binding	Vif TR-FRET	ALR inh	MLL AF4-AF9 inh	HNF4A DNA FP	rRNA inh HTS	rRNA inh HTS OD600	rRNA inh HTS RFP	mol
x	i	-7%	x	-6.8	5.2	15	6	3.0	O=C(CCC1CCN(C(=O)CC2=CCCCC2)CC1)NCc1ccc(F)cc1
x	i	x	x	-1.1	0.7	9	5	0.7	CC1(C(=O)Nc2ccc3c(c2)OCO3)CCN1C(=O)Cc1cc(F)ccc1F (centres undefined)
0.71	x	0%	x	x	-0.2	x	x	x	CCOC(=O)c1ccccc1NS(=O)(=O)c1ccc(C)cc1
0.7	x	3%	-13	x	1.0	x	x	x	Cc1ccc(OCCn2cc(Br)c(=O)[nH]c2=O)cc1
x	i	x	x	6.0	x	0	-1	1.2	COc1ccc(NC(=O)Nc2ccc3c(c2)OC[C@@H](C)NC[C@@H](C)[C@H](OC)CN(C)C3=O)cc1
0.69	i	x	-28	-1.2	0.2	x	x	x	CC1=C(C(=O)OC(C)(C)C)C(c2cccs2)NC(=O)N1 (centres undefined)
0.7	i	x	-6	-0.4	-1.4	5	7	0.9	Cc1ccc(OC(C)C(=O)Nc2ccccc2C(=O)N2CCOCC2)cc1 (centres undefined)
0.69	i	u	-21	-0.1	3.2	-4	0	-1.9	CCOc1cc(N2CCOCC2)c(OCC)cc1NC(=O)c1ccc(C)cc1
0.73	x	u	-21	x	1.8	x	x	x	COC(=O)c1cccc(S(=O)(=O)N2CCC(NC(=O)Nc3cccc(F)c3)CC2)c1
x	i	x	x	-4.0	x	0	4	-2.0	O=C(Nc1ccc(F)cc1)N1C[C@H]2[C@@H](c3ccccc31)[C@@H](CO)N2C(=O)c1ccc(F)cc1
0.77	x	1%	-5	x	-0.7	x	x	x	CCSc1nc2ccccc2n1CC(=O)N1CCCCC1
x	i	x	x	-2.5	x	0	-5	-4.2	C[C@H](CO)N1C[C@H](C)[C@H](CN(C)Cc2ccc(Cl)c(Cl)c2)Oc2ccc(NC(=O)Cc3ccccc3)cc2CC1=O
0.69	i	10%	0	0.5	0.4	2	-3	-3.5	O=C1C2C3C=CC(C3)C2C(=O)N1Nc1c(Cl)cc(Cl)cc1Cl (centres undefined)
0.71	i	-3%	x	-1.2	1.4	-8	-7	-5.5	CC1=C(C(=O)OCc2ccccc2)C(c2ccc(C(C)(C)C)cc2)NC(=O)N1CCCCCC(=O)O (centres undefined)
0.68	i	x	-3	-2.8	1.5	7	9	13	CCCCN(C)CCN1C(=O)C2C(C(=O)Nc3ccc(C)cc3)C3C=CC2(O3)C1C(=O)NC1CCCCC1 (centres undefined)

Arranged by length of the SMILES (low to high): six of the compounds above
Ecoli growth	FGF22 binding	Vif TR-FRET	ALR inh	MLL AF4-AF9 inh	HNF4A DNA FP	rRNA inh HTS	rRNA inh HTS OD600	rRNA inh HTS RFP	mol
0.77	x	1%	-5	x	-0.7	x	x	x	CCSc1nc2ccccc2n1CC(=O)N1CCCCC1
0.71	x	0%	x	x	-0.2	x	x	x	CCOC(=O)c1ccccc1NS(=O)(=O)c1ccc(C)cc1
0.69	i	10%	0	0.5	0.4	2	-3	-3.5	O=C1C2C3C=CC(C3)C2C(=O)N1Nc1c(Cl)cc(Cl)cc1Cl (centres undefined)
x	i	x	x	-1.1	0.7	9	5	0.7	CC1(C(=O)Nc2ccc3c(c2)OCO3)CCN1C(=O)Cc1cc(F)ccc1F (centres undefined)
0.71	i	-3%	x	-1.2	1.4	-8	-7	-5.5	CC1=C(C(=O)OCc2ccccc2)C(c2ccc(C(C)(C)C)cc2)NC(=O)N1CCCCCC(=O)O (centres undefined)
0.68	i	x	-3	-2.8	1.5	7	9	13	CCCCN(C)CCN1C(=O)C2C(C(=O)Nc3ccc(C)cc3)C3C=CC2(O3)C1C(=O)NC1CCCCC1 (centres undefined)

Other compounds follow:
Ecoli growth	FGF22 binding	Vif TR-FRET	ALR inh	MLL AF4-AF9 inh	HNF4A DNA FP	rRNA inh HTS	rRNA inh HTS OD600	rRNA inh HTS RFP	mol
x	i	x	x	1.3	x	-1	5	1.7	CO[C@@H]1CN(C)C(=O)c2ccc(NC(=O)C3CC3)cc2OC[C@@H](C)N(C(=O)Nc2ccccc2F)C[C@H]1C
0.65	x	7%	-1	x	2.9	x	x	x	CCOC(=O)c1ccc(OCC(=O)c2ccc(O)cc2O)cc1
x	i	x	x	-3.8	x	-18	-2	-9.5	C[C@@H]1CN([C@@H](C)CO)C(=O)c2cccc(NC(=O)c3ccncc3)c2O[C@@H]1CN(C)S(=O)(=O)c1ccc(Cl)cc1
0.68	i	-7%	2	0.8	2.3	3	0	4.6	O=C(COC(=O)c1cccc(O)c1)c1ccccc1
0.64	i	x	3	-2.1	6.0	8	6	-3.9	COC(=O)COc1ccc2oc(=O)cc(-c3cc4cccc(OC)c4o3)c2c1
0.71	i	24%	x	-7.7	2.7	14	16	-5.4	Cc1cc(C)c(S(=O)(=O)n2c([N+](=O)[O-])cnc2C)cc1C
0.74	x	2%	x	x	0.9	x	x	x	CC1Cc2ccccc2N1C(=O)CSc1nnc(-c2ccc(S(=O)(=O)N3CCCC3)cc2)o1 (centres undefined)
x	x	7%	-3	x	-1.9	x	x	x	CC1=Nc2ncnn2C(c2ccccc2)/C1=N\O (centres undefined)
0.68	x	4%	19	x	1.5	x	x	x	Cn1c(=N)n(CC(=O)C(C)(C)C)c2ccccc21
0.71	i	-6%	-14	-0.4	0.8	-8	-10	-4.5	COc1cc(OC)c(NC(=O)C2CCN(S(=O)(=O)c3ccc4c(c3)CC(C)N4C(C)=O)CC2)cc1Cl (centres undefined)
0.68	i	-4%	-29	2.2	1.0	3	3	-10	CCCN1CCN(CCCNC(=O)CN2C(=O)c3cccnc3Oc3ccc(Cl)cc32)CC1
x	i	x	x	-1.7	13	8	20	14	CCCCCNC(=O)C(c1ccccc1F)n1c(=O)c(-c2ccco2)nc2ccccc21 (centres undefined)
0.72	x	-1%	-2	x	-1.0	x	x	x	Cc1ccc(S(=O)(=O)N2CCC(C(=O)N3Cc4ccccc4C3)CC2)cc1
x	i	8%	-7	5.6	1.1	4	17	0.0	c1ccc(C2Nc3cccc4cccc(c34)N2)cc1
x	i	x	x	-5.7	x	1	5	2.3	C[C@@H]1CN([C@@H](C)CO)C(=O)Cc2cc(NS(=O)(=O)c3cccs3)ccc2O[C@H]1CN(C)S(=O)(=O)c1cn(C)cn1

Reprinted from the part before: two entries, followed by the next part.
Ecoli growth	FGF22 binding	Vif TR-FRET	ALR inh	MLL AF4-AF9 inh	HNF4A DNA FP	rRNA inh HTS	rRNA inh HTS OD600	rRNA inh HTS RFP	mol
x	i	8%	-7	5.6	1.1	4	17	0.0	c1ccc(C2Nc3cccc4cccc(c34)N2)cc1
x	i	x	x	-5.7	x	1	5	2.3	C[C@@H]1CN([C@@H](C)CO)C(=O)Cc2cc(NS(=O)(=O)c3cccs3)ccc2O[C@H]1CN(C)S(=O)(=O)c1cn(C)cn1
x	x	1%	-1	x	-3.9	x	x	x	COc1ccc(/C(C)=N/OCC(=O)N=Nc2c(O)[nH]c3ccc(Br)cc23)cc1
0.67	i	6%	-19	-0.3	0.8	5	5	-1.6	Cc1cccc(NC(=S)NCc2ccccc2Cl)c1C
0.67	x	0%	-4	x	-0.4	x	x	x	COc1cccc(-c2nnc3n2N=C(c2cc(OC)ccc2OC)CS3)c1
0.65	i	x	22	4.0	0.8	3	8	-0.3	CCc1ccc(NC(=O)CCc2ccc(C)o2)cc1
x	i	x	x	-0.1	x	5	9	-0.2	Cc1ccc(S(=O)(=O)N(C)C[C@@H]2Oc3ccc(NC(=O)CCN4CCOCC4)cc3CC(=O)N([C@H](C)CO)C[C@@H]2C)cc1
x	i	x	x	-9.1	x	0	0	-3.2	COc1ccc(NC(=O)Nc2ccc3c(c2)C(=O)N([C@H](C)CO)C[C@H](C)[C@@H](CN(C)C(=O)Nc2ccc(OC)cc2)OCCCC[C@@H](C)O3)cc1
0.73	x	17%	-6	x	-0.5	x	x	x	CCOC(=O)C(=O)N1CCN(CC)CC1
0.79	x	-7%	0	x	-1.3	x	x	x	Cn1c(=O)c2c(SCC(=O)c3ccccc3)nc(C3CC3)nc2n(C)c1=O
0.65	i	3%	-13	0.8	-2.4	4	10	3.9	NC1=NC(c2ccccc2)=NC1(NC(=O)c1ccccc1)C(Cl)Cl (centres undefined)
x	i	x	x	0.7	x	0	-11	2.7	C[C@H]1CCCCO[C@H](CN(C)C(=O)c2ccccc2)[C@@H](C)CN([C@@H](C)CO)C(=O)c2cc(NS(=O)(=O)c3ccc(Cl)cc3)ccc2O1
0.69	i	0%	4	-0.5	2.3	5	2	-7.5	CS(=O)(=O)N(Cc1ccccc1)c1ccccn1
0.74	x	4%	-1	x	5.6	x	x	x	CS(=O)(=O)N(CC(=O)NCC1CCCO1)Cc1ccc(Cl)cc1 (centres undefined)
x	i	x	x	4.5	x	-19	-33	12	COc1ccc(-c2ccc3c(c2)O[C@H](CN(C)Cc2cccnc2)[C@H](C)CN([C@H](C)CO)S3(=O)=O)cc1
x	i	x	x	-17	x	1	-3	1.5	C[C@@H]1CN([C@@H](C)CO)S(=O)(=O)c2ccc(-c3ccncc3)cc2O[C@H]1CN(C)Cc1ccc(Oc2ccccc2)cc1
0.7	i	x	-13	-0.8	2.0	4	10	1.9	COCCCN(Cc1ccco1)C(=O)c1cc2c(s1)-c1ccc(Cl)cc1S(=O)(=O)C2
0.63	x	13%	0	-1.3	6.6	16	15	2.4	Cc1cc(Br)cc(C)c1OCC(=O)NNC(=O)CCC(=O)NCc1ccccc1
x	i	x	x	1.7	x	-1	3	0.4	COc1cccc(NC(=O)N[C@@H]2C=C[C@H](CC(=O)Nc3ccc(-c4ccccc4)cc3)O[C@H]2CO)c1
0.66	i	3%	-3	-2.2	3.8	10	11	-0.6	O=C(N=C1SC2CS(=O)(=O)CC2N1c1ccc(Br)cc1)C1CCCO1 (centres undefined)
0.78	x	-3%	-3	x	-0.8	x	x	x	O=C(CCC(=O)c1ccc(F)cc1)Nc1cccnc1
x	i	-10%	x	0.4	-2.1	2	-18	-14	CCOC(=O)C(Cc1ccc(O)cc1)Nc1nc2ccccc2o1 (centres undefined)
0.69	i	x	x	-2.6	-2.0	-2	1	-3.4	O=C(COC(=O)c1ccc(Br)cc1)NCCN1C(=O)CSC1=O
0.71	x	72%	-15	x	-0.7	x	x	x	O=C1c2ccccc2C(=O)N1CCc1csc(-c2ccc(F)cc2)n1
0.74	x	1%	-3	x	0.4	x	x	x	O=C(c1ccco1)N1CCCN(C(=O)c2ccco2)CC1
0.62	i	x	-1	-2.0	0.8	-1	-9	-0.5	COc1ccc(S(=O)(=O)N2CCC(C(=O)NC(C)CCc3ccccc3)CC2)cc1 (centres undefined)
0.68	x	25%	42	x	-1.1	x	x	x	CC(=O)CC1OC(=O)C(Br)=C1NCc1ccccc1 (centres undefined)
0.72	x	-7%	-1	x	-1.4	x	x	x	Cc1ccc(C(=O)OCC(=O)Nc2sc3c(c2C#N)CCCCC3)cc1NC(=O)c1ccco1
0.73	i	-4%	-20	4.7	-1.1	-2	-8	-2.0	Cc1ccc(Cl)cc1NC(=S)N(Cc1ccco1)C(C)c1cccs1 (centres undefined)
x	i	-12%	-5	-1.0	0.3	10	-27	-5.4	S=C(NCc1ccccc1)NC1CCCCC1
0.67	i	x	-6	-3.3	-2.4	0	-1	-0.4	Cc1cc(C)cc(Nc2ccc3nonc3c2[N+](=O)[O-])c1
x	i	x	x	6.7	x	-5	-10	0.8	C[C@H]1CN([C@@H](C)CO)C(=O)c2cccc(NC(=O)Nc3ccc4c(c3)OCO4)c2O[C@@H]1CN(C)S(=O)(=O)c1ccc(F)cc1
0.69	i	9%	-4	1.8	3.0	2	-2	-0.4	C=CCN(C(=O)CNC(=O)c1cccs1)C(C(=O)NC(C)(C)C)c1ccccc1 (centres undefined)

Bioassay records from PubChem BioAssay.
